Screening results from PubChem BioAssay.
Six1-Eya2 inh: qHTS Assay for Inhibitors of the Six1/Eya2 Interaction | activity change, % (test concentration not listed) | actives 0.56% (n = 360,000) | AlphaScreen GST-Six1/His-Eya2 binding, biochemical; hits give low values; control for the full effect not named in the record; in the data active = activity change below about -65%; inconclusive = about -30% to -65%; inactive = above about -30%; also: % is scaled to controls: 0 for no effect and ±100 for the full control effect; compound concentration not given in the record
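AlphaScreen with GST-Six1 and His-Eya2 (5X mix: 250 nM and 500 nM), glutathione donor and nickel acceptor beads; buffer 50 mM Tris pH 8.0, 300 mM NaCl, 1 mM TCEP; 1 h at 37 C in the dark.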
TRPML1 blocker: qHTS for Inhibitors of the Human Mucolipin Transient Receptor Potential 1 (TRPML1); actives 0.02% (n = 390,000); activity change, negative = inhibition, % (concentration not given with the values); TRPML1-inducible cells, Ca2+ dye fluorescence, FDSS; hits give low values; inhibition of EC80 agonist-evoked calcium signal; in the data active means activity change below about -50%; inconclusive means about -30% to -50%; inactive means above about -30%;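 also: stimulus is agonist 54-4 at its EC80 concentration; % is scaled to controls: 0 for no effect and ±100 for the full control effect; compound concentration not given in the record; the text of the record puts the active cut at -80%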
Target sequence (Q9GZU1 whole entry, looked up): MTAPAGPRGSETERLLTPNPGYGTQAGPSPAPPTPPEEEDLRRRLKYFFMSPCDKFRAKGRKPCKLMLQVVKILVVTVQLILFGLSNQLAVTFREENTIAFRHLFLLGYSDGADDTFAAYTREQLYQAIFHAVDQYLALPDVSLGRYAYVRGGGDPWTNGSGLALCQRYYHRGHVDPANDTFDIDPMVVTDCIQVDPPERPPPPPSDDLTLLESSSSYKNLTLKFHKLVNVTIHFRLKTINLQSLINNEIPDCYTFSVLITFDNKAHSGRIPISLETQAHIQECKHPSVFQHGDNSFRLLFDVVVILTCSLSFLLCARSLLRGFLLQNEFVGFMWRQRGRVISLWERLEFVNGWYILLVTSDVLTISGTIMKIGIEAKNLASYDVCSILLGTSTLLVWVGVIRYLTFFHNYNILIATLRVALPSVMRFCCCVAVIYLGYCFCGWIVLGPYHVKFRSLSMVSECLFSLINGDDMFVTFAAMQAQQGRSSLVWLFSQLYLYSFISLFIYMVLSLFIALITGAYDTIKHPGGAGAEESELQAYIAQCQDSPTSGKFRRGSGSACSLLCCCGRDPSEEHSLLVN
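Tet-induced TRPML1-DL cells loaded with Ca8 no-wash calcium dye were read kinetically on FDSS. Compound addition was followed by EC80 agonist 54-4 (4 uM final); inhibition was read over 110 s.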
D2 PAM: Beta-Arrestin HTS for Positive Allosteric Modulators of the Human D2 Dopamine Receptor: Potentiators. AID 624464, 2012. potentiation, % (concentration not given with the values). DiscoveRx D2 beta-arrestin cells, luminescence, 90 min; 100% = 57 uM dopamine signal. actives 0.23% (n = 360,000). D(2) dopamine receptor (Homo sapiens), P14416; active = potentiation of 50% or more; inconclusive = 30% to 50%; inactive = 30% or less;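 also: compound concentration not given in the record; tested on top of an EC20 dose of dopamine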
Target sequence (P14416 whole entry, looked up): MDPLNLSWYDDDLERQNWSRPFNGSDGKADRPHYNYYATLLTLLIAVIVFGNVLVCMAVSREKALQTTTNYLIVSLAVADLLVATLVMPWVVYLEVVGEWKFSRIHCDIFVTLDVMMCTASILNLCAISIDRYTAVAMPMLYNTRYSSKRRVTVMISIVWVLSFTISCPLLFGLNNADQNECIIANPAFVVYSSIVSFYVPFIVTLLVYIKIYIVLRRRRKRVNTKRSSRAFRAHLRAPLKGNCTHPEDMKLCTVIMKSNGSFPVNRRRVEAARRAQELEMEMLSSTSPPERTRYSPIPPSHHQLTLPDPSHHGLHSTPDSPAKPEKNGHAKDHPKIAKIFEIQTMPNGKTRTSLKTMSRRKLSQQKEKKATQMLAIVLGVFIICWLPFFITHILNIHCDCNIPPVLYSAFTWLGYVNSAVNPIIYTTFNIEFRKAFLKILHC
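D2 cells co-treated with compound plus 50 nM dopamine (EC20) for 90 min at 37 deg C to detect potentiation. Beta-arrestin recruitment was read as enzyme-fragment luminescence after 1 h at ambient temperature. Full response was set by 57 uM dopamine.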
TRPML1 agonist: qHTS for Agonists of the Human Mucolipin Transient Receptor Potential 1 (TRPML1) | Mucolipin-1 (Homo sapiens), Q9GZU1 | TRPML1-expressing cells, Ca2+ dye fluorescence, FDSS; host cell line not named in the record; reference of the full effect not given here | activation, % (concentration not given with the values) | actives 0.12% (n = 410,000) | AID 624414, 2012; in the data active = activation above about 50%; inconclusive = about 30% to 50%; inactive = below about 30%; also: 0% is about no effect; the text of the record puts the active cut at 80%
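TRPML1-DL cells, Tet-induced overnight (~16 h, 37 degrees C), loaded 45-90 min at room temperature with Ca8 no-wash calcium dye plus quencher. FDSS fluorescence: 10 s baseline, compound pin-transfer, 110 s agonist read, then EC80 54-4 (4uM final) and 110 s antagonist read.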
TRPV1 potentiator: HTS Assay for Compounds that Act as Potentiators of the Vanilloid Receptor 1 | Transient receptor potential cation channel subfamily V member 1 (Homo sapiens), Q8NER1 | potentiation, % at 8.33 µM | AID 540277, 2011 | TRPV1-expressing cells, Fluo-8 calcium influx, capsaicin EC20 potentiation; host cell line not named in the record; control for the full effect not named in the record | actives 0.02% (n = 320,000); active means potentiation above 80%; inconclusive means 30% to 80%; inactive means below 30%; also: 0% is about no effect
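Cells expressing TRPV1 were dye-loaded with Fluo-8 and read kinetically: 10 s baseline, 3 min after compound (agonist portion), then 2 min after EC20 capsaicin (allosteric enhancer portion). Calcium-bound dye fluorescence at 480/520 nm.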
CtBP-E1A inh: qHTS Assay for Inhibitors of the CtBP/E1A Interaction; CtBP / adenovirus E1A interaction (AlphaScreen); AlphaScreen GST-E1A/His-CtBP binding, 1536-well; hits give low values; control for the full effect not named in the record; activity change, % (concentration not given with the values); actives 0.49% (n = 340,000); AID 651724, 2012; in the data active means activity change below about -65%; inconclusive means about -30% to -65%; inactive means above about -30%; also: % is scaled to controls: 0 for no effect and ±100 for the full control effect
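AlphaScreen with 125 nM GST-E1A and 125 nM His-CtBP (5X stocks) in Tris pH 8.0, 300 mM NaCl, BSA, Tween 20, TCEP. Compounds preincubated 2 h at 37 deg C, then glutathione donor/nickel acceptor beads added for 1 h at 37 deg C in dark.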
The depositor's hits bear a star; ? = inconclusive; · = no result given; & = joins results of further samples. Random draw from the library; about 0.95% have a hit in one of these screens.

Values run as follows: Six1-Eya2 inh	CtBP-E1A inh	D2 PAM	TRPV1 potentiator	TRPML1 blocker	TRPML1 agonist
COc1cccc(CN(CC2CCCO2)S(=O)(=O)c2ccc(S(=O)(=O)N(C)C)cc2)c1 (centres undefined)
  -7	-4	2	-11	-11	87*
Cc1cc(Cl)c(OCCn2ccnc2)c(Br)c1
  -4	6	-2	2	28	0.4
COCCn1c(Cc2ccccc2)nnc1SCC(=O)NC(C)(C)C
  -1	-9	-3	9	-6	-0.1
CN(CCO)c1cc(N2CCC3(CC2)OCCO3)c2nonc2c1[N+](=O)[O-]
  4	3	-28	-4	-4	-0.2
C#CCN1C(C)=C(C(=O)OC)C(c2cccc([N+](=O)[O-])c2)C(C(=O)OCC)=C1C (centres undefined)
  -21	-21	2	-10	-4	2.0
O=C1/C(=C/c2ccccc2F)SC(=S)N1CCC(=O)N1CCCCC1CCO (centres undefined)
  -8	-14	-3	10	4	0.1
Cc1ccc(C)c2[nH]c(=O)c(CN(Cc3nnnn3C3CCCCC3)CC3CCCO3)cc12 (centres undefined)
  -2	3	-26	?	-11	1.0
O=c1[nH]ncc(N/N=C\c2cccs2)c1Cl
  -3	0	-2	-1	-5	-0.8
Cc1ccc(CN2CCN(/N=C/c3cccnc3)CC2)cc1
  3	0	-36	0	29	0.4
O=C(CCc1ccccc1)NN1C(=O)C2C3C=CC(O3)C2C1=O (centres undefined)
  0	5	-5	-2	-14	1.2
O=C(CN1CCN(Cc2ccccc2F)C1=O)NCCN1CCOCC1
  8	-3	1	·	4	-0.5
CCOC(=O)c1sc(=S)n(-c2ccc(C)cc2)c1N
  -15	-14	3	-3	-3	1.7
CCOCCn1c(CN2CCN(C(=O)c3ccco3)CC2)nc2c1c(=O)n(C)c(=O)n2C
  -2	-10	-4	0	-13	-0.3
O=C(NCc1cccs1)C1CC(=O)N(C2CCCC2)C1 (centres undefined)
  6	3	-9	?	-2	-0.4
O=C(CN1C(=O)c2cccc([N+](=O)[O-])c2C1=O)NNC(=O)c1ccc(F)cc1
  3	6	-3	·	-3	0.1
COc1ccc(-n2nnnc2SCC(=O)Nc2ccccc2N2CCOCC2)cc1
  9	2	-6	4	31	0.1
C[C@H](CO)N1C[C@H](C)[C@@H](CN(C)C(=O)Nc2ccc(C(F)(F)F)cc2)Oc2c(NS(=O)(=O)c3ccccc3)cccc2C1=O
  4	2	-2	·	6	-0.4
COC(=O)Cn1cnc(C(=O)Nc2ccc(C)c(C)c2)n1
  7	11	8	·	5	-0.5
O=C(/C=C/c1ccccc1Cl)NCCCn1ccnc1
  2	-1	-14	28	22	-0.4
O=C(O)CSc1nnc(-c2ccncc2)n1CCc1ccccc1
  4	7	-7	-4	-6	0.9
Cc1ccc(F)cc1C(=O)N1CCCCC1c1cc(C(=O)Nc2ccc(F)c(Cl)c2)no1 (centres undefined)
  -4	-28	-2	·	·	-0.2
CCN(CC)c1ccc(/C=N/NC(=O)Nc2ccccc2)cc1
  ?	-28	0	-8	5	1.1
CCOC(=O)N1CCN(CC(O)COCc2ccc(Cl)cc2)CC1 (centres undefined)
  5	-3	-11	-4	0	1.0
COc1cccc(NC(=O)C2CCN(S(=O)(=O)c3ccccc3)CC2)c1
  -18	-9	-10	-14	-13	1.2
O=C(O)CSCC(=O)N1CCc2c([nH]c3ccccc23)C1C(F)(F)F (centres undefined)
  -1	6	-2	18	2	-0.6
CC(=O)NC(C)(c1ccccc1)c1nc(-c2ccc(F)c(Cl)c2)cs1 (centres undefined)
  -8	6	-6	·	·	-0.9
CCOC(=O)c1cc(-c2ccc(F)cc2)nc2c1c(=O)[nH]c(=O)n2Cc1ccccc1
  6	4	-7	3	9	-0.2
COc1ccccc1/C=N/NC(=O)CC(=O)NCCc1ccccc1
  3	-1	-10	·	-26	0.5
NNC(=O)c1c[nH]c2ccc(OCc3ccccc3)cc12
  5	-4	-5	·	4	1.6
Cc1cc(C)c2c(=O)[nH]c(SCC(=O)Nc3ccc(N(C)C)cc3)nc2n1
  -5	-11	7	0	-2	0.2

By substructure: the compounds so far with a COOH group.
Values run as follows: Six1-Eya2 inh	CtBP-E1A inh	D2 PAM	TRPV1 potentiator	TRPML1 blocker	TRPML1 agonist
O=C(O)CSc1nnc(-c2ccncc2)n1CCc1ccccc1
  4	7	-7	-4	-6	0.9
O=C(O)CSCC(=O)N1CCc2c([nH]c3ccccc23)C1C(F)(F)F (centres undefined)
  -1	6	-2	18	2	-0.6

Continued:
Values run as follows: Six1-Eya2 inh	CtBP-E1A inh	D2 PAM	TRPV1 potentiator	TRPML1 blocker	TRPML1 agonist
O=[N+]([O-])c1cc(S(=O)(=O)c2ccc(N3CCCCC3)c([N+](=O)[O-])c2)ccc1N1CCCCC1
  -13	0	-5	4	9	-0.8
Cn1c(=O)oc2cc(S(=O)(=O)Nc3ccccc3O)ccc21
  15	·	-3	-2	12	0.1
CC(/C=C(\NC(=O)c1ccccc1)C(=O)N=Nc1c(O)[nH]c2ccc(C)cc12)=C\c1ccccc1
  -15	0	1	2	5	1.3
COc1ccc(N2CCN(C(=O)COc3ncnc4ccccc34)CC2)cc1
  1	3	-2	7	-9	-0.7
CCC(C)(C)NC(=O)C(c1ccco1)N(C(=O)c1csnn1)c1cccc(F)c1 (centres undefined)
  8	2	7	-18	11	-0.3
COc1ccc(C(=O)CSc2nnc(NC(=O)C3CC(=O)N(c4cccc(OC)c4)C3)s2)cc1 (centres undefined)
  8	-19	9	11	0	0.9
Cc1ccc(CNC(=O)C2CCN(S(=O)(=O)N3CCOCC3)CC2)cc1
  0	7	-3	3	7	-0.6
Cc1cccc(C(=O)NNC(=O)c2cccc(C)c2)c1
  7	0	-9	-2	9	-0.2
O=C(/N=C1\NC(=O)C(F)(C(F)(F)F)S1)NC1CCCCC1 (centres undefined)
  ?	-20	-3	9	-3	-0.6
CSc1ccc(Cn2c(C)c(C(=O)NCc3ccc4c(c3)OCCO4)sc2=O)cc1
  -16	-12	-14	·	·	-0.5
Cc1cccc2c(C(=O)Nc3ccc(Br)cc3)cc(-c3ccccn3)nc12
  12	-17	-3	-5	1	-0.2
COc1ccc(Cc2cnc(N)s2)cc1
  1	-3	-5	-8	-6	0.9
O=C(CNC(=O)c1cccc(Br)c1)N/N=C/c1cn[nH]c1-c1ccccc1
  -2	2	1	14	10	1.4
Cc1cc(C)c2c(n1)SCC(=O)N2CC(=O)Nc1ccc(C)c(C)c1
  1	7	-1	5	-4&1	0.8&-1.1
CC(=O)Nc1ccccc1OC(=O)N1CCOCC1
  3	1	2	-1	10	0.4
O=C(COC(=O)c1c[nH]c(=O)[nH]c1=O)Nc1cccc([N+](=O)[O-])c1
  11	·	-14	-5	16	-0.1
NNC(=S)Nc1ccc(S(=O)(=O)N2CCOCC2)cc1
  2	1	-10	-1	15	0.7
COCCNC(=O)C1CCC(=O)N(c2ccc(OC)cc2)C1c1ccc(OC)c(OC)c1 (centres undefined)
  4	-10	-3	-2	-15	0.5
CCc1c(C)c(C#N)c2nc3ccccc3n2c1NCCN(C)C
  4	5	-8	1	-4	0.2
CCOc1ccc2nc(SCC(=O)NCc3ccc(OC)c(OC)c3)[nH]c2c1
  -3	3	4	-13	12	5.4
CCOC(=O)C1=C(C)NC(=O)NC1c1ccc(OC(C)C(=O)O)c(OC)c1 (centres undefined)
  5	13	0	-6	1	0.9
CC(C)CCN(C(=O)CCSc1ccc(F)cc1)c1c(N)n(Cc2ccccc2)c(=O)[nH]c1=O
  -4	-20	0	10	19	0.0
CCOc1cc(/C=N/NC(=O)CSc2nnc(C)s2)ccc1OCc1ccccc1Cl
  -2	·	-7	0	14	1.4
CCOC(=O)/C(C#N)=C/c1ccc(-c2ccsc2C(=O)OC)o1
  -1	0	0	3	-14	1.2
CCCn1c(C(O)c2ccc(OC)cc2)nc2ccccc21 (centres undefined)
  1	3	-17	9	27	5.1
CNC[C@H]1Oc2c(NS(=O)(=O)c3ccc(OC)cc3)cccc2C(=O)N([C@H](C)CO)C[C@@H]1C
  4	8	-1	·	8	-0.5
Cn1c2ccccc2c(=O)c2ccc(-c3ccc4c(c3)OCO4)cc21
  9	-2	-12	-11	19	0.5
Cc1ccc(C2C(/C=C3/SC(=S)NC3=O)=C(c3cccs3)Oc3ccccc32)cc1 (centres undefined)
  -24	-5	1	5	5	-0.3
c1cnc2ccc(-n3ccnc3)cc2c1
  7	5	-1	·	·	0.0
Cc1cccc(-c2oc3ccc(-c4ccc5c(c4)OCO5)cc3c2C(=O)OCc2ccc(O)cc2)c1
  5	-19	-12	0	?	1.0
COc1ccc(NS(=O)(=O)c2coc(C(N)=O)c2)cc1Cl
  -3	8	0	-10	-5	0.6
COc1cccc(-n2c(=O)[nH]cc(C(=O)Nc3ccc(NC(C)=O)cc3)c2=O)c1
  1	5	-8	15	-10	-0.6
C=C(C)C(=O)Nc1cccc(C2=NOC3(C2)C[C@@H](C(N)=O)N(C(=O)c2cc([N+](=O)[O-])cc([N+](=O)[O-])c2)C3)c1 (some centres undefined)
  -22	1	84*	?	-11	-0.8
Nc1nonc1-n1nnc(C(=O)N/N=C/c2cccc(O)c2)c1CN1CCCC1
  -9	-19	-8	18	-10	0.8
CCN(Cc1cc2cccc(C)c2[nH]c1=O)C(=O)c1ccccc1OC
  3	15	-3	-3	65	-0.5
O=C(Nc1ccccn1)C1CCN(S(=O)(=O)c2ccc3c(c2)OCCO3)CC1
  0	·	-4	2	3	-0.7
COc1ccc(-c2cc(-c3ccc(Cl)cc3)c(C#N)c(SCC(=O)O)n2)cc1
  -2	2	-4	2	20	1.5
Cc1ccc(S(=O)(=O)N2CCC(=O)N(CCOCc3ccccc3C)CC2)cc1
  -6	·	-4	-26	-1	-0.4
Cc1ccc(NC(=O)CCC(=O)NNC(=O)c2ccccc2Cl)c(C)c1
  3	-5	-7	0	-10	-0.8
COc1ccccc1NC(=O)N(Cc1ccco1)Cc1cc2c(C)ccc(C)c2[nH]c1=O
  -1	3	2	28	40	0.5
O=C(NC1CCSc2ccccc21)c1cccc(OC(F)F)c1 (centres undefined)
  11	0	-2	3	-11	2.8
O=C(NNc1nc2cc3c(cc2s1)OCCO3)c1ccccc1
  -1	-2	-6	6	20	0.8
Cc1ccc(C(=O)Cn2cnc3ccccc3c2=O)cc1
  -4	1	-17	8	6	-0.5
Cc1cc(NC(=O)c2cccc(S(=O)(=O)N3CCCCCC3)c2)n(-c2ccccn2)n1
  -11	0	-2	-3	-2	0.6
